Screening results (PubChem BioAssay)
B2AR ag: activates human beta-2 adrenergic receptor causing internalization; hit rate 0.43% among 340,000; Am2.2-beta2AR cells, FAP receptor internalization, flow cytometry; reference of the scale not given here; AID 504454; response, % (no concentration beside the values);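 active = response above a set limit, near 3 SD of response in nonfluorescent compounds, cut at about 42% in these data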;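 also: stock transfer was 100 nL into about 11 µL; a reference agonist was the positive control; negative values mostly stem from fluorescent compounds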
Target sequence (P07550 whole entry, looked up): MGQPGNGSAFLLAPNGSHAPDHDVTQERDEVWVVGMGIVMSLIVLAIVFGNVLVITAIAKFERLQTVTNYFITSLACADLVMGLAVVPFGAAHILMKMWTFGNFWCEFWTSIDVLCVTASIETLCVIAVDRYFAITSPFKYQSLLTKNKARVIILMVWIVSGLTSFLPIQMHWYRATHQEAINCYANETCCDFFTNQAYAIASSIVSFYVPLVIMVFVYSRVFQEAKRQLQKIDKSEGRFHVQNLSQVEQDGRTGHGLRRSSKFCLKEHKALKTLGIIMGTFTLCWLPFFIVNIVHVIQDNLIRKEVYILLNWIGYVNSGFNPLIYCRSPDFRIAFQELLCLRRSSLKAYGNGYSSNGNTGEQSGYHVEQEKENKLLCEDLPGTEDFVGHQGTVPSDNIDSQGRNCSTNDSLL
Beta cell apopt: beta cell apoptosis inhibition. hit rate 0.8% among 300,000. AID 435005. INS-1E cytokine-induced death, ATP luminescence, 48 h; percent of positive-control rescue, neutral wells zero. protection from apoptosis, % (no concentration beside the values);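 active = all replicates at 75% or more, or half of them and the mean; inconclusive = half reach 75% but not the mean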;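 also: 0% = cytokine-treated negative control wells and 100% = positive control rescue; higher means more ATP so stronger rescue from cytokine killing; wells of about 40 µL received 100 nL stock; the first replicate is given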
LANA-H2B inh: blocks KSHV LANA binding to histone H2A/H2B | Q9QR71 | cell-free LANA-H2A/H2B peptide, fluorescence polarization | inhibition, % (concentration not given with the values) | hit rate 0.6% among 320,000 | AID 2629; in the data active = inhibition mostly above about 10%, no sharp cut-off; inactive = mostly below about 6.7%;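 also: stock transfer was 7.5 nL into about 10 µL; 0% = median of vehicle wells and 100% = median of positive control wells; one replicate is shown; the record names a cut of 25% in any replicate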
RanGTP-Impb inh: inhibitors of RanGTP-importin-beta interaction, primary screen, biochemical, FRET, CFP-Ran, YFP-importin-beta, homogeneous; cell-free CFP-Ran/YFP-importin-beta FRET ratio; inhibition, % (no concentration beside the values); hit rate 1.1% among 300,000;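 active = most replicates above 15%; inconclusive = exactly half above 15%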;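 also: 0% = DMSO wells and 100% = Ran loaded with GDP instead of GTP; wells of about 40 µL received 100 nL stock; the first replicate is given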
Bfl-1 A1 inh: inhibitors of the anti-apoptotic protein A1, read as caspase activation; MEF A1-2A-BIM cells, Caspase-Glo 3/7 luminescence, 3 h; percent of clofoctol response, vehicle zero; caspase activation, % (test concentration not listed); hit rate 0.066% among 330,000; AID 2462;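 active = over half of replicate activation scores above 10%, or exactly half above 10 with the replicate mean above 10; inconclusive = replicate mean below 10 yet half the replicates above 10; inactive = over half of replicates below 10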;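 also: wells of about 30 µL received 50 nL stock; many hits fall short of the cut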
T cruzi inh: T. cruzi replication inhibition. hit rate 1.4% among 300,000. AID 1885. inhibition, % (concentration not given with the values). T. cruzi beta-gal in NIH3T3, luminescence, 90 h;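 active = mean inhibition across valid replicates above about 55%, limit read from the data; inconclusive = mean below that limit but half or more replicates reach it; inactive = mean below it, under half of replicates reach it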;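 also: signal also drops with host cell toxicity which is not excluded here; 0% = plate median of DMSO wells and 100% = zero luminescence signal; higher percent means less beta-gal luminescence so fewer parasites; stock transfer was 50 nL into about 50 µL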
Calb FLC: C. albicans growth modulation with fluconazole | hit rate 0.57% among 300,000 | growth inhibition, % (test concentration not listed) | C. albicans CaCi-2 (fluconazole-resistant clinical isolate) + fluconazole, Alamar Blue growth, 48 h;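 active = most replicates above 75%; inconclusive = exactly half above 75%; inactive = most below 75%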;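 also: all wells also contain fluconazole at 8 µg/ml as a sub-toxic cotreatment; 0% = median of DMSO wells and 100% = median of geldanamycin control wells; wells of about 8 µL received 7.5 nL stock; the first replicate is given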
UCH37 inh: human UCH37 deubiquitinating enzyme inhibition; purified proteasome/UCH37, Ub-AMC cleavage fluorescence; inhibition, % (concentration not given with the values); hit rate 0.33% among 330,000; AID 588478;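 active = mean of two replicates above 20%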;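 also: 0% = compound-free wells with enzyme and 100% = wells lacking proteasome; stock transfer was 100 nL into about 20 µL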
Target sequence (Q9Y5K5 whole entry, looked up): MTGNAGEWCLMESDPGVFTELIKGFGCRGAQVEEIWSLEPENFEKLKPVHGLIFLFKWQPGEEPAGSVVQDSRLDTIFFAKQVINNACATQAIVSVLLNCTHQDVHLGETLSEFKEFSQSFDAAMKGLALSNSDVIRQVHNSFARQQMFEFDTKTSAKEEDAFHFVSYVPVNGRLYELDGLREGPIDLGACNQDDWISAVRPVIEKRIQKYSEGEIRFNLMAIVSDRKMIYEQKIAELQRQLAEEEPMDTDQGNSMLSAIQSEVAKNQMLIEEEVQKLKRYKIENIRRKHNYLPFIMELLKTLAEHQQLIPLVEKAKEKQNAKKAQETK
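assay system = human UCH37 enzyme supplied as purified proteasome complex | amount = proteasome at 0.15 nM in the dispensed enzyme solution | schedule = 30 min compound-proteasome preincubation then 25 min substrate reaction, room temperature | measured by = fluorescence, ex 355 nm, em 460 nm | benchmarks = no-proteasome wells (full inhibition) and compound-free wells (no inhibition)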
Numbers without * were called inactive; u = inconclusive; x = not tested or not shown. Compounds as they come; about 4.3% have a hit in one of these screens.

SMILES | B2AR ag | Beta cell apopt | LANA-H2B inh | RanGTP-Impb inh | Bfl-1 A1 inh | T cruzi inh | Calb FLC | UCH37 inh
Cc1ccccc1CCN(C(=O)CN1C(=O)c2ccccc2S1(=O)=O)C(C(=O)NCC1CCCO1)c1ccncc1 (configuration not stated) | -7 | 1 | -2.2 | 2.4 | 0.1 | -8 | -6 | 1.3
Cc1ccc(-c2nn(C)c(=O)c3ccccc23)cc1CO | 3 | -6 | 1.9 | 2.7 | -0.1 | -11 | -10 | -0.3
CC12CCC(C(=O)N(NC(=O)c3cccnc3)C1=O)C2(C)C (configuration not stated) | -7 | -4 | 0.1 | -1.0 | 1.6 | -20 | 0 | -1.4
Cn1c(=O)[nH]c(=O)c2c1nc(NCCCO)n2Cc1ccc(F)cc1 | -12 | 0 | 2.1 | 0.3 | -0.9 | -8 | -1 | 2.4
COc1ccc(C(C(=O)NC(C)(C)C)N(C(=O)CNC(=O)c2cccs2)c2ccc(C)cc2)cc1OC (configuration not stated) | -11 | -6 | -0.2 | 0.1 | 1.2 | 10 | 9 | 3.9
COCCOc1cc(NC(=O)CS(=O)CC(=O)N(C)C)c(Cl)cc1Cl (configuration not stated) | 2 | 5 | -2.0 | u | -0.4 | -5 | -2 | 3.1
COC(=O)C1=C(C(=O)OC)[C@@H]2N(C)c3ccc(OC)cc3[C@@]23C[C@@H](C(=O)OC)N(C(=O)C2CCC2)C3=N1 | x | -1 | -4.3 | 3.7 | 0.3 | -18 | 2 | 1.5
CCN(CC)c1ccc(/C=N/NC(=O)c2nnn(-c3nonc3N)c2-c2ccc(C)cc2)cc1 | 16 | 2 | -7.9 | 1.9 | 0.2 | 17 | 31 | x
CC(C(=O)Nc1cccnc1)C1Sc2ccccc2NC1=O (configuration not stated) | -3 | -2 | 3.8 | 1.7 | -0.5 | -8 | 4 | 4.1
Cn1c(CCC(=O)OCC(=O)NCc2ccc3c(c2)OCO3)nc(=O)c2ccccc21 | -1 | -3 | -4.5 | 7.4 | 1.6 | 5 | -7 | -1.2
COc1ccc(NC(=O)[C@@H]2CC=C[C@@H]3CCN(Cc4ccccc4)C(=O)[C@@H]32)cc1 | 4 | -5 | 4.9 | -3.6 | 1.1 | -6 | -9 | 5.6
c1ccc(COc2cccc(CN3CCCCC3)c2)cc1 | 9 | -7 | -2.0 | 3.1 | 0.4 | 14 | 3 | 2.0
Cc1ccc2nnc(Cl)n2n1 | 7 | 1 | 1.3 | 0.7 | -0.9 | -3 | -7 | -7.3
CCOC(=O)Cc1csc(NC(=S)NC(=O)CC(C)C)n1 | 6 | 0 | 5.0 | -2.9 | 0.0 | -8 | 17 | 1.0
CCC1Sc2ccc(S(=O)(=O)Nc3ccc(OC)c(OC)c3)cc2NC1=O (configuration not stated) | -3 | 51 | -0.8 | 0.0 | -0.1 | -28 | 19 | 0.6
CC(=O)Oc1ccc(N(C(C)=O)S(=O)(=O)c2cc([N+](=O)[O-])ccc2C)cc1 | -10 | -3 | 1.3 | 1.5 | -0.3 | -11 | 20 | -1.0
CCN(C(=O)COC(=O)CCC(=O)c1cccs1)c1c(N)n(Cc2ccccc2)c(=O)[nH]c1=O | -6 | -10 | -5.1 | u | 0.5 | -9 | 5 | -1.3
Cc1ccc(/C=C/C(=O)OCC(=O)NCc2ccc(Cl)cc2)o1 | -5 | 1 | 0.4 | x | -0.5 | x | x | 1.1
CCn1c(SCC(=O)Nc2nc3c(s2)CCCC3)nnc1-c1ccccc1 | -6 | 1 | 2.7 | -0.4 | 1.1 | 2 | 0 | 3.9
O=C(Nc1nc2ccccc2s1)c1cc2c(s1)-c1ccccc1OC2 | 5 | 24 | 2.9 | 37* | -0.8 | -23 | 0 | -183
COc1ccc(NC(=O)/C(C#N)=C\c2cc(OC)c(OCc3ccc(C(=O)O)cc3)cc2Br)cc1 | 14 | -1 | 1.8 | 1.9 | -2.9 | -2 | 5 | 3.1
O=C(Cn1cnc([N+](=O)[O-])n1)NC1CC1 | -1 | -2 | -0.8 | 0.1 | 1.1 | 16 | u | -0.5
Cc1ccc(/C(O)=C2\C(=O)C(=O)N(CCc3c[nH]c4ccccc34)C2c2cccnc2)cc1 (configuration not stated) | -5 | -9 | -2.4 | -1.3 | -0.3 | -4 | 25 | 9.0
Cc1[nH]c2ccc(C(C)C)cc2c1CC(=O)O | 4 | -1 | -1.8 | -1.5 | -0.5 | -4 | 9 | -2.6
O=C(Cn1cccc1C(=O)c1ccccc1)NCCN1CCOCC1 | 2 | -3 | 3.8 | 5.2 | 0.8 | 0 | -8 | 0.9
CCCCNC(=S)N(CCCN(C)C)Cc1cc2cc3c(cc2[nH]c1=O)OCO3 | 2 | 2 | -5.9 | -6.5 | -0.5 | -5 | -2 | -143
CC1Cc2cc(/C(O)=C3/C(=O)C(=O)N(CCCn4ccnc4)C3c3ccc(Br)cc3)ccc2O1 (configuration not stated) | -8 | 0 | -1.7 | 0.3 | 1.3 | -7 | 2 | 13
COC(=O)C1=C(O)/C(=C\c2ccc(O)c(OC)c2)N=C1C | 2 | -4 | 1.2 | -1.6 | -0.9 | -11 | 24 | 12
COc1ccc(COc2ccsc2C(=O)Nc2ccc(Cl)cc2)cc1 | -7 | -9 | 0.6 | -0.3 | 0.8 | 19 | 3 | -10.0
COc1ccc(NC(=O)C2CCCN(C(=O)c3ccc(Cl)cc3)C2)cc1S(=O)(=O)N(C)C (configuration not stated) | 1 | 1 | -5.7 | x | 1.4 | x | x | 1.1
CCC1CCCCN1C(=O)CSc1nc2c([nH]c3ccccc32)c(=O)n1C (configuration not stated) | -4 | 13 | -1.0 | 2.5 | -6.4 | 3 | -7 | -14
O=C(COc1ccc(S(=O)(=O)N2CCCCC2)cc1)NCc1cccnc1 | 2 | 1 | 0.3 | -2.0 | 0.3 | -5 | -1 | 4.5
Cc1cccc(OCCCC(=O)Nc2ccc(S(=O)(=O)Nc3ncccn3)cc2)c1C | 0 | 3 | -1.1 | 3.3 | 0.5 | -4 | 0 | 1.6
CN(C)C(=O)COC(=O)c1cccc(CN2C(=O)c3ccccc3C2=O)c1 | -39 | -1 | -0.6 | 5.9 | 1.5 | -4 | -3 | 1.9
Cc1ccc(C)c(NC(=O)CSc2nc(=O)n(CCN3CCOCC3)c3c2CCCC3)c1 | -8 | 0 | -9.7 | 1.8 | 1.7 | 9 | 0 | 1.2
CC(=O)c1c(C)nc2ccccc2c1N | -1 | 5 | 0.2 | -0.2 | 1.5 | 0 | -27 | 2.3
O=C(CCNS(=O)(=O)c1ccccc1)N1CCN(c2ccccc2F)CC1 | -8 | 5 | -0.9 | 0.3 | 1.1 | -11 | -5 | 3.9
CSc1cccc(NS(=O)(=O)c2ccccc2)c1 | 1 | 2 | -2.4 | 0.1 | 0.7 | -18 | 25 | 2.8
Cc1ccc(C(=O)NCCc2nnc3ccc(SCC(=O)Nc4cc(C)on4)nn23)cc1 | -7 | -13 | -7.4 | 4.0 | 0.4 | -6 | -5 | -1.9
COc1cc(C(=O)N2CCN(S(=O)(=O)c3ccc(F)cc3)CC2)cc(OC)c1OC | -1 | -5 | 2.1 | -1.7 | 1.1 | -12 | 4 | -0.2
CCOC(=O)c1ccc(NC(=O)COc2ccc(S(=O)(=O)NC(C)C)cc2)cc1 | 1 | -7 | -2.3 | 1.3 | -0.2 | -5 | 4 | 3.0
Cc1cccc(OCC(=O)N(Cc2cccs2)C2CCS(=O)(=O)C2)c1C (configuration not stated) | 2 | -6 | -15 | 6.2 | -0.5 | 2 | 17 | 0.8
COc1ccc(C2CC(=O)Oc3c(C(CCN4CCN(c5ccccc5)CC4)c4ccc(N(C)C)cc4)c(OC)cc(OC)c32)cc1 (configuration not stated) | -5 | -1 | 1.7 | -3.0 | -0.5 | 24 | -3 | -0.9
O=C(CCCN1C(=O)c2ccccc2C1=O)N1CCc2ccccc2C1 | -2 | x | 0.5 | 1.1 | -1.1 | 0 | 1 | 0.0
CC1CCC2CCCCC2N1C(=O)c1cc([N+](=O)[O-])cc([N+](=O)[O-])c1 (configuration not stated) | -2 | 2 | 2.8 | 2.7 | 0.8 | 56* | -4 | 2.2
O=C(COc1ncnc2ccccc12)Nc1ccccc1[N+](=O)[O-] | 5 | -9 | -2.0 | -3.1 | 1.0 | -17 | -6 | 2.9
COc1cccc(C(C(=O)NC2CCCC2)N(C(=O)c2ccco2)c2ccc(NC(C)=O)cc2)c1OC (configuration not stated) | -9 | 0 | 3.6 | -1.4 | 0.5 | 6 | -26 | 4.0
COc1ccc(S(=O)(=O)Nc2ccccc2C)cc1C(=O)N1CCOCC1 | 4 | x | 2.8 | -0.4 | -0.5 | -8 | 0 | 3.4
CC(C)Cn1c(SCC(=O)Nc2ncccn2)nc2ccccc21 | -8 | 1 | -1.1 | -0.8 | -0.4 | -3 | 2 | 3.4
O=C(CCc1nc(-c2ccccc2F)no1)NC1CCCCCC1 | -1 | 1 | 3.2 | x | 0.7 | x | -6 | 1.5

Remaining list, next part:
SMILES | B2AR ag | Beta cell apopt | LANA-H2B inh | RanGTP-Impb inh | Bfl-1 A1 inh | T cruzi inh | Calb FLC | UCH37 inh
COc1ccc(NC(=S)NCc2ccco2)c(OC)c1 | -2 | -5 | -2.6 | -2.0 | -0.1 | -17 | 23 | 1.0
CCCCN1C(=O)c2ccc(C(=O)Nc3c(N)n(CCCC)c(=O)n(C)c3=O)cc2C1=O | -1 | -1 | 5.2 | 0.5 | 0.3 | -10 | 0 | -4.6
N#CC1C(C#N)N2CCCN2C1c1ccc(Cl)cc1 (configuration not stated) | 9 | -7 | 1.8 | -0.6 | 0.9 | -5 | -5 | 0.1
CCCn1c(SCc2cc(=O)oc3ccc4ccccc4c23)n[nH]c1=O | -10 | 8 | 5.9 | 4.4 | 0.3 | 2 | 2 | -16
COc1ccc(-c2cn(CCO)nc2-c2ccc(OC)cc2)cc1 | -10 | -8 | -0.6 | 1.6 | 0.0 | 11 | -6 | -1.9
O=C(NC1CCCc2ccccc21)c1cccc(S(=O)(=O)N2CCN(c3ccccc3)CC2)c1 (configuration not stated) | 0 | 8 | -4.1 | 5.2 | -0.5 | 27 | -27 | 4.8
CNS(=O)(=O)c1ccc(N=Cc2c(C)[nH]n(-c3ccc(C)cc3C)c2=O)cc1 | -4 | -8 | 7.8 | 1.1 | -0.3 | -6 | -10 | 5.4
C/C(=N\NC(=S)NC1CCCCC1)c1c(F)cccc1F | -9 | -4 | -1.9 | 2.3 | -0.4 | -3 | 15 | x
Cc1ccccc1Oc1ncccc1C(=O)/C(C#N)=C/N(C)C | 16 | -6 | -2.5 | 2.3 | -0.7 | -13 | -7 | 7.9
CCOc1ccc(OCCOC(=O)CNC(=O)c2ccc(Cl)cc2Cl)cc1 | -6 | 0 | 2.6 | 2.3 | -0.6 | -8 | -1 | 2.5
COc1ccc(C(=O)NCCCCc2ccccc2)cc1 | -2 | x | 4.6 | 2.6 | 1.1 | -4 | -18 | 0.5
